# SARS PLP yeast – qHTS of Yeast-based Assay for SARS-CoV PLP. actives 0.19% (n = 330,000). Potency, µM (top dose mostly 32.9 µM), for inactives: at the top dose activity, positive = growth rescue. S. cerevisiae expressing SARS-CoV PLpro, growth rescue; control for the full effect not named in the record. AID 485353, 2010; further: 0% is about no effect; nearly all actives have a fitted effect of over 55% in size; growth read by luminescence after 48 h
# RE007 growth inh – qHTS Assay for Inhibitors of the HIV-1 protein Vpr; S. pombe RE007 Vpr strain, BacTiter-Glo ATP luminescence, 24 h; control for the full effect not named in the record; actives 0.21% (n = 360,000); Potency, µM (doses to about 92.2 µM), for inactives: top-dose activity change, negative = less growth; AID 651644, 2012; active = well fitted falling curve with a large enough effect; inconclusive = small, poorly fitted or top-dose-only effect; inactive = no such curve, though single readings can be large or run the other way;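 further: on the % scale 0 is the no-effect control and ±100 the full control effect; nearly all actives have a fitted effect of over 50% in size; the assay follows cell death caused by Vpr and the record does not say whether a fall means rescue or toxicity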
#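 Fission yeast strain RE007, carrying one chromosomally integrated HIV-1 vpr copy, was seeded at OD 0.01 in PMG+AL medium with 23 nL pinned compound. After 24 h at 30 °C and 99% humidity, viability was read by BacTiter-Glo luminescence.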
# Cruzain Triton – qHTS Assay for Promiscuous and Specific Inhibitors of Cruzain (with detergent) | actives 0.43% (n = 200,000) | AID 1478, 2009 | purified cruzain, Z-FR-AMC fluorescence, 0.01% Triton | Potency, µM, for the others: max response, negative = inhibition, hits mostly inhibitors; active means well fitted curve in the direction sought with a large enough effect; inconclusive means small, poorly fitted or top-dose-only effect, or another doubt; inactive means no such curve, though single readings can be large; an effect the other way counts as inactive or inconclusive;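 further: plate controls were neutral wells for no effect and buffer without enzyme for full effect; nearly all actives have a fitted effect of over 40% in size; top concentration of the series not given in the record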
# Target sequence (P25779 123-467 limits assumed): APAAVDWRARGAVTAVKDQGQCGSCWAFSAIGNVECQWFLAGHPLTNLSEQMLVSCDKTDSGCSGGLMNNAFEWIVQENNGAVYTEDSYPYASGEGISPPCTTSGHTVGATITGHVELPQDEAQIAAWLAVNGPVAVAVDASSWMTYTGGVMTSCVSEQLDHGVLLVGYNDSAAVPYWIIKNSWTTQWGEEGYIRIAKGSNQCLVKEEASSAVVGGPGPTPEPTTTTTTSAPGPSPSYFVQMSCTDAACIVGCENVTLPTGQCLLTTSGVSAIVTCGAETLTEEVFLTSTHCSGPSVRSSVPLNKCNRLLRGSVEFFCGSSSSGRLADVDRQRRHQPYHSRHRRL
#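 Read-out: AMC fluorescence (360 nm excitation, 450 nm emission), four reads over 2 min, first-to-third difference used. Conditions: cruzain 1.5 nM, Z-FR-AMC 2 uM, pH 5.5 acetate, 5 mM DTT, 0.01% Triton X-100.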
# Cruzain noTriton – qHTS Assay for Promiscuous and Specific Inhibitors of Cruzain (without detergent); Cruzipain (Trypanosoma cruzi), P25779; purified cruzain, Z-FR-AMC fluorescence, no detergent; Potency, µM, for the others: max response, negative = inhibition, most hits filed as inhibitors; actives 2.3% (n = 200,000); AID 1476, 2009; active means well fitted curve in the direction sought with a large enough effect; inconclusive means small, poorly fitted or top-dose-only effect, or another doubt; inactive means no such curve, though single readings can be large; an effect the other way counts as inactive or inconclusive;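 further: plate controls were enzyme without inhibitor for no effect and buffer without enzyme for full effect; nearly all actives have a fitted effect of over 40% in size; top concentration of the series not given in the record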
#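 Purified cruzain at 1.5 nM, pre-incubated 15 min with compound at room temperature in 100 mM sodium acetate pH 5.5, 5 mM DTT, 0.00005% Triton X-100. Reaction started with 2 uM Z-FR-AMC; AMC fluorescence increase over 60 s gives rate.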
# StopGo reporter – High Throughput Screening for Foot and Mouth Disease Virus Antivirals. actives 1.2% (n = 410,000). human cells with a luciferase reporter of 2A StopGo recoding; control for the full effect not named in the record. Potency, µM (titrated, usually from 57.9 µM), without a hit: at the top dose signal change, negative = less light; active = well fitted falling curve with a large enough effect; inconclusive = small, poorly fitted or top-dose-only effect; inactive = no such curve, though single readings can be large or run the other way; tested in HEK293T cells; further: on the % scale 0 is the no-effect control and ±100 the full control effect; nearly all actives have a fitted effect of over 45% in size; luciferase light after 4 h
# NS1 inh – qHTS Assay for Inhibitors of Influenza NS1 Protein Function; S. cerevisiae slowed by influenza A NS1, growth recovery by OD600; Potency, µM (series often up to 46.1 µM), without a hit: at the top dose activity, positive = more growth; actives 0.4% (n = 270,000); further: actives are rising curves; nearly all actives have a fitted effect of over 50% in size
#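 Read-out: OD600 growth recovery of NS1-expressing budding yeast. Cells grown overnight at 30C in -URA glucose medium, washed, resuspended and diluted 1:100 in 2% galactose assay medium, pH 6.0. Same strain lacking NS1 served as positive control.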
# LASV entry inh – qHTS for Inhibitors of binding or entry into cells for Lassa Virus; Lassa virus pseudotype entry inhibition, cell reporter; control for the full effect not named in the record; Potency, µM (highest dose often 37.9 µM), for the others: top-dose activity change, negative = inhibition, most hits filed as inhibitors; actives 1.2% (n = 300,000); active means well fitted inhibition curve with a large enough effect; inconclusive means small, poorly fitted or top-dose-only effect, or effect the other way; inactive means flat fitted curve, though single readings scatter; tested in HEK293 cells; further: on the % scale 0 is the no-effect control and ±100 the full control effect; nearly all actives have a fitted effect of over 50% in size; luciferase read-out
# Marburg entry inh – qHTS for inhibitors of binding or entry into cells for Marburg Virus; AID 540276, 2011; actives 1.8% (n = 300,000); Marburg virus pseudotyped entry inhibition, cell reporter; control for the full effect not named in the record; about a third of the inactives were read at about 46 µM; Potency, µM (doses to about 37.8 µM), for inactives: at the top dose activity change, negative = inhibition, usual class: inhibitors; active = well fitted inhibition curve with a large enough effect; inconclusive = small, poorly fitted or top-dose-only effect, or effect the other way; inactive = flat fitted curve, though single readings scatter; tested in HEK293 cells; about a fifth of its hits are not listed in these tables; further: on the % scale 0 is the no-effect control and ±100 the full control effect; luciferase read-out
# The depositor's hits bear a star; ? = inconclusive; · = no result given; & = joins results of further samples; [ ] = another dose, or the depositor's remark. Unless noted, the call rests on the fitted dose curve; in most records, active means well fitted rising curve with a large enough effect; inconclusive means small, poorly fitted or top-dose-only effect; inactive means no such curve, though single readings can be large or run the other way. Potency means the concentration at half of the fitted maximal effect.
# Second line of a record – SARS PLP yeast	RE007 growth inh	Cruzain Triton	Cruzain noTriton	StopGo reporter	NS1 inh	LASV entry inh	Marburg entry inh
Cc1nc2sc3c(=O)[nH]nnc3c2c(C)c1Br
  -2%	-6%	·	·	-3%	-83%	·	·
COc1ccc(OC(=O)c2ccc3nsnc3c2)cc1
  -5%	-9%	-4.3%	-2%	14%	0%	5%	?
CCOc1ccc(C2C(C(=O)c3ccco3)=C(O)C(=O)N2CCCn2ccnc2)cc1OCC (stereo not given)
  8%	2%	·	·	11%	-20%	7%[46.1 µM]	-3%[46.1 µM]
COc1ccc(CCNC(=O)c2ccc(CSc3ccccc3)o2)cc1
  -9%	-11%	·	·	-17%	·	-26%	-3%[46.1 µM]
CCC(C)(C)C1CCc2nc3ccccc3c(C(=O)OC(C)C(=O)Nc3c(C)n(C)n(-c4ccccc4)c3=O)c2C1 (stereo not given)
  -9%	-5%	-4.9%	?	?	7%	?	?
COc1ccc(C(=O)c2cn(-c3cccc(Br)c3)nc2C(C)=O)cc1
  ·	-18%	·	·	10%	·	-28%	9%[46.1 µM]
CC(=O)N1C(Nc2ccc(Cl)cc2)CCN1c1ccccc1 (stereo not given)
  -3%	67%	2.1%	4%	-8%	-13%	-20%	?
COc1ccc(N2CCN(CC(O)COc3ccc(C)cc3C)CC2)cc1 (stereo not given)
  -1%	1%	-4.5%	-7%	-20%&-24%	3%	-3%	?
CCc1ccc(N2CC(C(=O)Nc3cccnc3)CC2=O)cc1 (stereo not given)
  14%	3%	0.6%	5%	-7%	?	11%	-29%[46.1 µM]
Cc1ccc(/C=C2\SC(=S)N(c3cccnc3)C2=O)o1
  1%	13%	·	·	2%	-7%	·	·
COc1ccc(NC(=O)CSc2ncnc3c2cnn3CCc2ccccc2)cc1
  2%	2%	14%	-4%	20%	-6%	11µM*	?
O=S(=O)(NCCc1cn2ccccc2n1)c1ccc2c(c1)OCCO2
  ?	0%	1.0%	-12%	-5%	-67%	·	·
COc1ccc(S(=O)(=O)N/N=c2\oc3c(OC)cccc3cc2S(=O)(=O)c2ccc(C)cc2)cc1OC
  4%	-3%	·	·	23%	·	?	-12%[46.1 µM]
O=C(Cc1ccc(Br)cc1)N1CCN(c2ccccc2)CC1
  -6%	3%	-1.6%	-7%	21%	-78%	14%	-3%[46.1 µM]
COC(=O)/C=C1\SC(=NC(=O)c2ccc(OC)cc2)NC1=O
  2%	-6%	·	·	7%	3%	21%[46.1 µM]	7%[46.1 µM]
O=C1S/C(=C/c2ccc(N3CCOCC3)o2)C(=O)N1Cc1c(F)cccc1Cl
  -23%	-8%	-2.4%	-18%	9%	-1%	7%	?
O=C(Nc1cc(S(=O)(=O)Nc2ccccc2Cl)ccc1O)c1sc2cc(Cl)ccc2c1Cl
  -2%	-6%	·	·	0%	1%	0%[46.1 µM]	?
CC(CC(=O)N1CCc2ccccc21)c1ccccc1 (stereo not given)
  -11%	-24%	4.1%	-7%	17%	-72%	4%	10%[46.1 µM]
O=C(c1cccs1)N(Cc1cc2ccccc2[nH]c1=O)CC1CCCO1 (stereo not given)
  0%	2%	·	·	-3%	1%	-6%[46.1 µM]	-4%[46.1 µM]
CCOc1ccccc1C1C2CCCCC2(O)CCN1C(=O)c1cccs1 (stereo not given)
  9%	23%	-3.7%	-10%	34%[activator]	10%	2%	?

# Looked up one by one from above, 5 records:
# Second line of a record – SARS PLP yeast	RE007 growth inh	Cruzain Triton	Cruzain noTriton	StopGo reporter	NS1 inh	LASV entry inh	Marburg entry inh
COC(=O)/C=C1\SC(=NC(=O)c2ccc(OC)cc2)NC1=O
  2%	-6%	·	·	7%	3%	21%[46.1 µM]	7%[46.1 µM]
COc1ccc(NC(=O)CSc2ncnc3c2cnn3CCc2ccccc2)cc1
  2%	2%	14%	-4%	20%	-6%	11µM*	?
COc1ccc(S(=O)(=O)N/N=c2\oc3c(OC)cccc3cc2S(=O)(=O)c2ccc(C)cc2)cc1OC
  4%	-3%	·	·	23%	·	?	-12%[46.1 µM]
CC(CC(=O)N1CCc2ccccc21)c1ccccc1 (stereo not given)
  -11%	-24%	4.1%	-7%	17%	-72%	4%	10%[46.1 µM]
O=C(c1cccs1)N(Cc1cc2ccccc2[nH]c1=O)CC1CCCO1 (stereo not given)
  0%	2%	·	·	-3%	1%	-6%[46.1 µM]	-4%[46.1 µM]

# More results.
# Second line of a record – SARS PLP yeast	RE007 growth inh	Cruzain Triton	Cruzain noTriton	StopGo reporter	NS1 inh	LASV entry inh	Marburg entry inh
CCC(=O)Nc1cccc2cccnc12
  1%	-5%	·	·	-3%	-1%	-3%	-3%
Cc1nn(S(=O)(=O)c2ccc(C(C)C)cc2)c(C)c1S(=O)(=O)N1CCCCC1
  ·	·	0.1%	6%	-9%	·	4%[46.1 µM]	·
COc1ccc(C2NC(=S)NC3=C2CCc2ccccc23)cc1OC (stereo not given)
  -1%	-5%	-5.6%	3%	?	1%	-15%	?
CCOC(=O)[C@@H]1[C@H]2COc3ccc(Br)cc3[C@@H]2N2C(=O)N(c3ccc(Br)cc3)C(=O)[C@]12C
  -7%	-11%	·	·	-26%	15%	·	·
CCOc1ccc(CNC(=O)C2CCC(=O)N2C2CCCC2)cc1OC (stereo not given)
  -2%	0%	-1.8%	6%	·	-2%	11%	15%
Cc1cc(C)cc(NC(=O)C(=O)NCCCN2CCCC2=O)c1
  0%	0%	·	·	15%	·	-28%	20%
Cc1ccc(Cl)cc1NC(=O)CCCn1c(=O)c2cccn2c2ccccc21
  ·	·	-4.9%	3%	-21%	·	?	·
CCOC(=O)c1c(C)[nH]c(C)c1S(=O)(=O)NCC(=O)N1CCN(c2cc(Cl)ccc2C)CC1
  ·	·	-3.1%	?	-23%	·	?	·
Cc1ccc(NC(=O)N(Cc2ccc3c(c2)OCO3)Cc2cc3cc4c(cc3[nH]c2=O)OCCO4)cc1
  0%	-10%	2.2%	32µM*	-3%	-19%	?	?
O=C(CCn1nnc2ccccc21)N/N=C\Cc1ccccc1
  -1%	20%	·	·	17%	·	-2%	4%[46.1 µM]
CCC(C)[C@H](NC(=O)NCc1ccc(Cl)cc1)C(=O)O (stereo not given in full)
  2%	1%	·	·	-3%	2%	·	·
CN(Cc1nccs1)C(=O)c1ccc2nc(Cc3ccccc3F)oc2c1
  -4%	0%	·	·	27%	-9%	·	·
CCn1c(=O)cc(OCC(=O)N2CCN(c3cccc(C)c3C)CC2)c2ccccc21
  ·	·	-3.4%	?	20µM*	·	?	24%[46.1 µM]
O=C(Nc1nc(-c2ccc(-c3ccccc3)cc2)cs1)C1CCCO1 (stereo not given)
  -2%	-16%	-2.2%	-3%	?	8%	-1%	-21%
COc1ccc(C(=O)Nc2ccccc2C(=O)N/N=C/c2ccco2)cc1
  -55%	18µM*	-4.7%	-2%	?	9%	?	?
C=CCn1c(-c2ccoc2C)n[nH]c1=S
  3%	8%	5.9%	2%	14%	7%	13%	2%
COc1cccc(CNC(=O)Cc2nc3nc(C)cc(C)n3n2)c1
  -16%	-3%	0.9%	-3%	4%	0%	11%	?
O=[N+]([O-])c1ccc(N2CCN(c3ccc(Cl)nn3)CC2)cc1NC1CC1
  ·	-3%	·	·	-16%	·	1%	?
CCCCNC(=O)c1ccc2nc(-c3ccco3)c(-c3ccco3)nc2c1
  12%	-6%	14µM*	16µM*	-2%	?	2%	-30%&-30%
O=C(CSc1ccc([N+](=O)[O-])cn1)Nc1ccccc1N1CCOCC1
  -7%	2%	·	·	-21%	-8%	9%	5%

# (listing goes on)
# Second line of a record – SARS PLP yeast	RE007 growth inh	Cruzain Triton	Cruzain noTriton	StopGo reporter	NS1 inh	LASV entry inh	Marburg entry inh
NC(=O)C1CCN(C(=O)CN2C(=O)c3ccccc3S2(=O)=O)CC1
  -6%	-10%	4.8%	21%	41%[activator]	0%	-2%	3%
S=C(NCCCc1ccccc1)Nc1ccccc1
  -1%	5%	·	·	0%	-50%	-20%[46.1 µM]	7%[46.1 µM]
COCCCNC(=O)COc1ccc(-c2nccc(-c3ccccn3)n2)cc1
  -5%	-5%	5.5%	3%	-30%	-12%	-25%	?
Cc1nc(SCC(=O)NC2CCCCC2)[nH]c(=O)c1C
  2%	-3%	·	·	-1%	-39%	-7%	3%[46.1 µM]
c1cncc(CNC2CCCc3ccccc32)c1 (stereo not given)
  11%	12%	3.4%	-14%	4%	-1%	-5%	-2%
Cc1ccc(/C=N/Nc2nc(Cl)c(Cl)cc2Cl)s1
  -18%	-6%	-1.8%	?	60%[activator]	-12%	?	-10%[46.1 µM]
C/C(=N\N1CCN(Cc2ccc(Cl)cc2)CC1)c1ccc(F)cc1
  -2%	4%	·	·	-7%	-4%	2%[46.1 µM]	-19%[46.1 µM]
COc1ccc(Cl)cc1-n1c(C)cc(C(=O)O)c1C
  -3%	-1%	1.5%	-3%	-18%	-52%	0%	4%
CCOC(=O)C1(Cc2ccccc2Cl)CCN(Cc2csc(C(C)=O)c2)CC1
  0%	-22%	·	·	-22%	-1%	?	?
CCn1c(SCC(=O)N2CCc3ccccc32)nnc1-c1c[nH]c2ccccc12
  1%	14%	3.8%	5%	32µM*	-28%	?	?
CC(=O)N1CCC(=NNS(=O)(=O)c2ccc(C)c([N+](=O)[O-])c2)CC1
  2%	-7%	-5.5%	4%	-6%	?	14%	?
O=C(NCc1ccco1)C1CC(=O)N(c2ccc(Cl)cc2)C1 (stereo not given)
  -1%	7%	·	·	-24%	·	27%	?

# Single values from the list:
# StopGo reporter result of NC(=O)C1CCN(C(=O)CN2C(=O)c3ccccc3S2(=O)=O)CC1 = 41%[activator]
# LASV entry inh result of COCCCNC(=O)COc1ccc(-c2nccc(-c3ccccn3)n2)cc1 = -25%

# Compounds as they come; any-hit rate near 4.7%.
